Screens: PubChem, Johns Hopkins Ion Channel Center
KCNQ2 pot – potentiators of rat KCNQ2 potassium channel; O88943; CHO-K1 KCNQ2, FluxOR thallium flux fluorescence; stronger effect = higher value; B-score at 10 µM; hit rate 0.54% among 310,000;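 active = fluorescence ratio B-score at least 3 SD of library B-scores, with initial fluorescence B-score within 3 SD, cut at about 5.3 in these data; same plate scores as AID 2156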;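 also: B-score of peak minus minimum over baseline fluorescence ratio after K+ and Tl+ stimulus; positive B-score means potentiation of KCNQ2 with more thallium influx and brighter signal; only the inactives scoring about 0 or higher are listed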
Target sequence (O88943 whole entry, looked up): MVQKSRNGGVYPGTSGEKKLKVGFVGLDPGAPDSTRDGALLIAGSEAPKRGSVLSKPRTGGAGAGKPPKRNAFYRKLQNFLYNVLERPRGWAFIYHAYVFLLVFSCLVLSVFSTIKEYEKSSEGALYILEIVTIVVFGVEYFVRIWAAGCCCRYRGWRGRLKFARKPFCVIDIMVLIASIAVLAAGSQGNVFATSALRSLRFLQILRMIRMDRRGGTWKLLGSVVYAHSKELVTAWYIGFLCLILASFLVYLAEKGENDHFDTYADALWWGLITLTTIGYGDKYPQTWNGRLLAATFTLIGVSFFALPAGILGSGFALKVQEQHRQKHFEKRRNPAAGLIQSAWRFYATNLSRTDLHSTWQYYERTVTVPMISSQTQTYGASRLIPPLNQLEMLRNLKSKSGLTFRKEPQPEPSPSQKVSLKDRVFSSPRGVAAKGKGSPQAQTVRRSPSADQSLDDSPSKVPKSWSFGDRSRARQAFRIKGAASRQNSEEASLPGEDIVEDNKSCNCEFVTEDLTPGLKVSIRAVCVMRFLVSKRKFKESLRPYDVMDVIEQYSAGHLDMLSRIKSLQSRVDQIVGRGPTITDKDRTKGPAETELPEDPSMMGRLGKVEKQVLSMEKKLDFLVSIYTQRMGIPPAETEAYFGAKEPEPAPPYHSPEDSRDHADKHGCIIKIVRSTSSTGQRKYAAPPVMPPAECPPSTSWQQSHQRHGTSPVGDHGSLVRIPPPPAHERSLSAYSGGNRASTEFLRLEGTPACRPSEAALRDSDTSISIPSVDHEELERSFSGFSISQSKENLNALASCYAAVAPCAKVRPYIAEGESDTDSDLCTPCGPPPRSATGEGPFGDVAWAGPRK
KCNQ2 pot baseline – also measured in KCNQ2 pot; calls as there; B-score; compound at 10 µM; measured here: initial fluorescence intensity artifact check;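 brightness before thallium and not channel activity; 0 = typical well and far values either way flag optical interference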
* hit, by the source's call.

smiles | KCNQ2 pot | KCNQ2 pot baseline
COc1ccc(Cl)cc1NC(=O)CC1S/C(=N/N=C2CCCCCC2)NC1=O (stereo unspecified) | 0.52 | -0.93
O=C(c1cnn2ccccc12)N1CCCc2ccccc21 | 0.32 | 0.67
Cc1ccc(Nc2n[nH]c(C)c2[N+](=O)[O-])c(C)c1 | 1.1 | -0.32
COc1cccc(-n2c(=O)n(Cc3ccccc3)c(=O)c3[nH]cnc32)c1C | 0.03 | -0.03
COc1cccc(-c2noc(-c3cccnc3)n2)c1 | 0.05 | 1.2
O=C(Nc1ccc(CN2CCOCC2)cc1)c1ccco1 | 0.22 | 1.8
COc1ccc(NC(=O)CSc2nnc(-c3cc(C)[nH]n3)n2N)cc1 | 1.1 | 0.4
O=C(Nc1ccc(S(=O)(=O)Nc2ccccn2)cc1)C(F)(F)F | 3.9 | -1.5
COc1cc(NC(=O)c2ccccc2)c(OC)cc1NC(=O)CN1CCOCC1 | 0.71 | 1.7
O=C(COc1ccc(S(=O)(=O)N2CCCC2)cc1Cl)NC1CC1 | 0.75 | 0.5
C[C@H](NC(=O)c1nc[nH]c1C(=O)N1CCc2ccccc2C1)C(=O)OC(C)(C)C | 0.83 | 2
O=c1c2c3c(sc2nc2n1CCCC2)CCCCC3 | 0.84 | 0.76
CCc1ccc(-n2c(O)cnc2Nc2nc(C)cc(C)n2)cc1 | 1.5 | 0.18
Cc1cc2cc3c(cc2nc1SCC(=O)Nc1c(C)cccc1C)CCC3 | 11* | -1.2*
COc1cc(CNCCc2ccc(S(N)(=O)=O)cc2)ccc1OCC(=O)NC1CCCCC1 | 0.72 | 0.9
CCOc1ccccc1NC(=O)CCCNC(=O)Cn1cnc2sc(C)c(C)c2c1=O | 0.03 | -1.1
Cc1ccc(N2C(=O)c3ccc(C(=O)N4CCN(c5ccc(C)c(C)c5)CC4)cc3C2=O)cc1 | 0.19 | 0.1
CC(=O)Oc1ccc2nc(/C=C/c3ccccc3)oc(=O)c2c1 | 0.64 | -1.2
Cc1nc(CC(=O)c2ccc(O)c(C)c2O)cs1 | 2.2 | -2.6
CC(C)c1ccc(C(O)Cc2nc3ccccc3n2C)cc1 (stereo unspecified) | 0.16 | 0.04
CCn1c(C)c(C)c2cc(C(=O)NCCCN3CCCCC3)ccc21 | 2.1 | 1.9
Cc1ccc2sc(C)[n+](CCC(C)S(=O)(=O)[O-])c2c1 (stereo unspecified) | 0.01 | 2.3
CCC(C)NC(=O)C1CC(c2ccc(OC)cc2)=NO1 (stereo unspecified) | 1.4 | -1.6
Cc1cccc(N2C(=O)C(O)=C(C(=O)c3cccs3)C2c2ccc(F)cc2)n1 (stereo unspecified) | 0.87 | -0.26
Cc1nnc(NC(=O)CSc2nc(N)c(NC(=O)c3cccs3)c(=O)[nH]2)s1 | 2.2 | 0.14
COCCN(CCOC)CC(O)COC(c1ccccc1)c1ccccc1 (stereo unspecified) | 0.1 | 0.78
CN(Cc1ccccc1)CC(O)COc1ccc(CNCCOc2cccnc2)cc1 (stereo unspecified) | 1.5 | 1.1
COc1ccc(-c2nnc(-c3cccnc3)o2)cc1 | 0.99 | -1.1
Cc1ccc(Nc2nc(N3CCOCC3)nc(N3CCOCC3)n2)cc1C | 0.12 | -1
Cc1ccc(CCNC(=O)C2CCN(S(=O)(=O)c3cccc4nsnc34)CC2)cc1 | 0.02 | -0.12
CCOC(=O)c1c(C)n(C)c2ccc(OC)c(NC(=O)CCN3CCSCC3)c12 | 0.2 | 0.22
Cc1cc(NC(=O)CC#N)n(-c2nc3ccccc3[nH]2)n1 | 1.3 | -0.39
O=C(O)CCCC(=O)Nc1cccc([N+](=O)[O-])c1 | 0.05 | 2.1
O=C(CNC1CCCC1)Nc1ccc(N2CCCCCC2)cc1 | 2.1 | -1.9
FC(F)(F)c1ccnc(Sc2n[nH]c(C(F)(F)F)n2)c1 | 0.06 | 6.4
COC(=O)c1cc2ccccc2c(-c2c(O)ccc3ccccc23)c1O | 0.71 | 1
COC(=O)C1C2C=CC3(CN(Cc4cccs4)C(=O)C13)O2 (stereo unspecified) | 0.12 | -0.87
NC(=O)CSc1nnc(-c2ccc(S(=O)(=O)N3CCCC3)cc2)n1CC1CCCO1 (stereo unspecified) | 0.06 | -1.9
COc1ccc(S(=O)(=O)NCc2ccccn2)cc1 | 0.83 | 0.32
CN(C)CCCN(C(=O)c1cc2ccccc2oc1=O)c1nc2ccc(F)cc2s1 | 0.55 | 0.56
Cc1ccc2c(c1)N(CC(=O)NCC1CCCO1)C(=O)CO2 (stereo unspecified) | 0.01 | -1.9
Cc1cc2c(=O)n(C)c(SCC(=O)NC3CCCC3)nc2s1 | 1.3 | -0.97
CCC(=O)Nc1cccc(C(=O)OCc2cccc([N+](=O)[O-])c2)c1 | 0.59 | -0.18
Cc1cccc(Nc2ccc([N+](=O)[O-])cn2)c1 | 2.5 | -0.12
CCN(CC)C(=O)Cn1nc(-c2ccccc2O)nc1SCC(=O)Nc1ccc(OC)cc1 | 0.28 | -1.6
O=[N+]([O-])c1ccc(/C=N/n2cnc3ccccc32)s1 | 0.65 | 0.03
CC1CCCN(Cc2ccc(OCc3ccccc3)cc2)C1 (stereo unspecified) | 0.28 | 0.32
Cc1cccn2c(=O)c3cc(C(=O)NC4CCCCC4)c(=N)n(Cc4ccccc4)c3nc12 | 0.09 | -0.43

Quoted at random: 4 compounds from above, in no set order.
smiles | KCNQ2 pot | KCNQ2 pot baseline
CCC(=O)Nc1cccc(C(=O)OCc2cccc([N+](=O)[O-])c2)c1 | 0.59 | -0.18
O=[N+]([O-])c1ccc(/C=N/n2cnc3ccccc32)s1 | 0.65 | 0.03
Cc1cccn2c(=O)c3cc(C(=O)NC4CCCCC4)c(=N)n(Cc4ccccc4)c3nc12 | 0.09 | -0.43
CC1CCCN(Cc2ccc(OCc3ccccc3)cc2)C1 (stereo unspecified) | 0.28 | 0.32

One compound at a time, as listed above. Screens in order: KCNQ2 pot, KCNQ2 pot baseline
`O=[N+]([O-])c1ccc(/C=N/n2cnc3ccccc32)s1` across the screens: 0.65, 0.03
`CCN(CC)C(=O)Cn1nc(-c2ccccc2O)nc1SCC(=O)Nc1ccc(OC)cc1` across the screens: 0.28, -1.6
`Cc1cccn2c(=O)c3cc(C(=O)NC4CCCCC4)c(=N)n(Cc4ccccc4)c3nc12` across the screens: 0.09, -0.43
`Cc1cccc(Nc2ccc([N+](=O)[O-])cn2)c1` across the screens: 2.5, -0.12
`Cc1ccc2c(c1)N(CC(=O)NCC1CCCO1)C(=O)CO2` (stereo unspecified) across the screens: 0.01, -1.9

The listing continues:
Each structure is followed by: KCNQ2 pot | KCNQ2 pot baseline
> Cc1cccc(NC(=O)c2ccccc2O)c1C
    1.1 | 1.1
> O=C(CCn1cccc1)Nc1nccs1
    0.42 | -0.91
> COCC(=O)Nc1ccc(S(=O)(=O)NCCc2ccccc2)cc1
    1.4 | 0.48
> Cc1ccc(S(=O)(=O)N(C)CC(=O)Nc2cc(C)ccn2)cc1
    0.84 | -0.77
> CNC(=O)c1c[nH]n2c(=O)c(Cc3ccccc3F)c(C)nc12
    0.25 | -1.5
> COc1ccccc1S(=O)(=O)Nc1ccc2cn[nH]c2c1
    1.3 | -0.79
> COc1ccc(C(=O)CSc2nnc(C3CCCCC3)n2N)c(OC)c1
    0.35 | -0.88
> O=C(N/N=C/c1c(Nc2cccc(C(F)(F)F)c2)nc2ccccn2c1=O)c1ccccc1[N+](=O)[O-]
    0.65 | -2.3
> COc1ccc(CNC(=O)[C@H](C)NC(=O)C2CCN(S(=O)(=O)c3ccccc3)CC2)cc1
    1.3 | -0.05
> O=C(CN(Cc1ccccc1)S(=O)(=O)c1ccc(S(=O)(=O)N2CCOCC2)cc1)Nc1ccccc1
    0.83 | -1.6
> Cc1cc(C)cc(NC(=O)CSc2nc(N)c(NC(=O)c3cccs3)c(=O)[nH]2)c1
    0.96 | 1.6
> C#C[C@]1(O)CC[C@H]2[C@@H]3CCC4=CC(=O)CC[C@@H]4[C@H]3CC[C@@]21C
    0.29 | 0.14
> Cc1ccc(F)cc1NC(=O)CSc1ncccn1
    3.2 | -0.56
> OC1NC(=S)N(c2ccccc2)C1O (stereo unspecified)
    0.79 | -0.04
> Cc1ccc(-n2c(SCC(=O)NCC3CCCO3)nnc2-c2ccoc2C)cc1 (stereo unspecified)
    0.92 | 0.85
> COc1ccc(-n2cnnc2SCCC#N)cc1
    1.5 | -2.2
> COc1ccc(S(=O)(=O)Nc2ccc3c(c2)n(C)c(=O)n3C)cc1F
    1.2 | 1.7
> Cc1cc2cc(CN(Cc3ccco3)C(=O)C3CCCCC3)c(=O)[nH]c2cc1C
    0.67 | 0.68
> Cc1ccccc1NC(=O)Cc1c(O)c2ccccc2[nH]c1=O
    1.1 | -0.91
> CCOC(=O)c1cccc(NC(=O)CCc2nnc3ccc(N4CCOCC4)nn23)c1
    0.08 | 0.47
> CCOC(=O)CCC(=O)O[C@H]1[C@H](O[C@@H]2[C@@H](C)[C@H](O[C@H]3C[C@@](C)(OC)[C@@H](O)[C@H](C)O3)[C@@H](C)C(=O)O[C@H](CC)[C@@](C)(O)[C@H](O)[C@@H](C)C(=O)[C@H](C)C[C@@]2(C)O)O[C@H](C)C[C@@H]1N(C)C
    0.62 | -0.17
> CNC(=O)C(=O)Nc1ccc2c(c1)N(S(=O)(=O)c1cccs1)CCC2
    0.06 | 3
> Fc1ccc2c(c1)C(c1ccncc1)=NNC(c1cccnc1)=N2
    0.69 | 0.99
> O=c1[nH]c2ccccc2c2nc(-c3cccc(S(=O)(=O)N4CCCC4)c3)nn12
    2.2 | -0.35
> C/C(=N\OC(=O)c1ccc(F)cc1)c1ccc(F)c(F)c1
    0.93 | -1.8
> COc1ccccc1CN1CCC(n2nccc2NC(=O)c2ccccc2Cl)CC1
    0.37 | 1.4
> C/C(Cn1ncc(N2CCOCC2)c(Cl)c1=O)=N\O
    0.3 | -1.1
> O=c1[nH]c(=O)n(C(c2ccccc2)c2ccccc2)cc1Br
    1 | -0.96
> Cc1nnsc1C(=O)NC1CCCc2c1cnn2-c1cc(F)cc(F)c1 (stereo unspecified)
    0.64 | 0.86
> O=C(Cn1cnc2ccccc2c1=O)Nc1nc2ccccc2s1
    0.26 | 0.01
> COc1ccc(NC(=S)NNC(=S)Nc2cccc(C(F)(F)F)c2)cc1
    1.7 | -0.08
> CCOc1ccc(CN2CCN(Cc3ccsc3)C(CCO)C2)cc1CO (stereo unspecified)
    0.51 | 0.4
> COc1ccccc1C1(CCN=Cc2ccc(N(C)C)cc2)CCOC(C)(C)C1 (stereo unspecified)
    0.34 | -0.42
> O=C(Nc1cc(Oc2ccccc2)cc([N+](=O)[O-])c1)C12CC3CC(C1)CC(n1cnc(Cl)n1)(C3)C2
    1.4 | -0.57
> CCSc1nnc(NC(=O)c2cc3c(s2)CCCC3)s1
    0.24 | 0.49
> Cc1c(C(=O)NC2CCCc3ccccc32)oc2ccc(S(=O)(=O)N3CCOCC3)cc12 (stereo unspecified)
    1.5 | -0.59
> COCCNC(=O)CN1C(=O)CSc2ccc(S(=O)(=O)N3CCOCC3)cc21
    1.8 | -0.25
> Cc1ccc(CSCc2ccc(C(=O)NC3CC3)o2)cc1
    0.1 | -0.83
> O=C(Cn1nc(Cc2cccnc2)c2ccccc2c1=O)NCC1COc2ccccc2O1 (stereo unspecified)
    0.25 | -2.4
> O=C(O)c1[nH]c2ccccc2c1C(c1cc(Br)ccc1O)c1c(C(=O)O)[nH]c2ccccc12
    2 | -1
> Cc1ccc(CNC(=O)CCC(=O)n2ncc3cc(C)ccc32)cc1
    1.8 | -0.16
> OCC1(CCc2ccccc2)CCN(Cc2cc(F)ccc2-n2cccn2)CC1
    1.1 | -0.01
> Cc1nn(Cc2ccccc2Cl)c2sc(C(=O)OC3CCCC3=O)cc12 (stereo unspecified)
    0.49 | -2.5
> CCOc1cc(/C=C/c2ccc3cccc([N+](=O)[O-])c3n2)ccc1OCC(=O)N(C)C
    0.98 | -2.2
> CCOC(=O)C1CCc2sc(N)c(C#N)c21 (stereo unspecified)
    0.77 | 0
> O=C(Nc1c2c(nn1-c1cccc(Cl)c1)CS(=O)(=O)C2)C1CC1
    0.09 | -0.18
> CN(C)CC(=O)Nc1nc(-c2ccccc2)cs1
    0.29 | 0.49
> Cc1ccc(C)c(SCC(=O)Nc2cccnc2Cl)c1
    0.91 | -0.96
> CSCCC(NC(=O)C1CC1)c1nc2ccccc2[nH]1 (stereo unspecified)
    1.5 | -1.6
> COc1ccc(OC)c(N(CC(=O)NCCSCc2ccco2)S(=O)(=O)c2ccc(OC)c(OC)c2)c1
    0.65 | -0.03
> COC(=O)CSc1nnc(-c2cccc(NC(=O)c3ccc(C)cc3)c2)n1C
    2.5 | -0.52
> CCN1CC(C)C(O)(c2ccccc2)CC1C (stereo unspecified)
    4.2 | 0.01
> CC(C)C(=O)N=c1sc2cccc(F)c2n1C
    1.2 | -0.34
> CNc1nc(-c2cccs2)cc(C(F)(F)F)c1C#N
    1.6 | -0.56
> COc1cc(C2Nc3ccccc3NC3=C2C(=O)CC(C)(C)C3)cc(OC)c1OC(C)=O (stereo unspecified)
    0.33 | 0.99
> Cc1ccc2c(c1)N(CC(=O)N1CCCC1)C(=O)C(C)O2 (stereo unspecified)
    0.9 | 0.05
> CCCC(c1nnnn1Cc1cccs1)N1CCN(C)CC1 (stereo unspecified)
    0.86 | 2
> COC(=O)[C@@H]1C[C@@]2(O)[C@H](O)[C@H](O)[C@H](O)C[C@H]2N1Cc1cc(F)ccc1F
    0.41 | 0.55
> CCn1c(SCC(=O)c2ccccc2)nc2ccccc2c1=O
    0.74 | 0.37
> Fc1cc2[nH]c(=S)[nH]c2cc1Cl
    1.5 | 0.4

The list continues.
Each structure is followed by: KCNQ2 pot | KCNQ2 pot baseline
> COc1ccccc1C1CC(c2ccccc2)Nc2ncnn21 (stereo unspecified)
    1.1 | 0.4
> COc1ccc(C(C)=O)cc1CSc1nnc(-c2ccccc2O)n1-c1ccccc1
    0.88 | 0.06
> CCn1cc(C(=O)O)c(=O)c2cc3c(cc21)OCO3
    1.3 | 0.64
> OCCN(CCO)c1nc(-c2ccccc2)nc2c1oc1ccccc12
    0.02 | -0.02
> O=C(Nc1ccc(S(=O)(=O)N2CCc3ccccc32)cc1)C(F)(F)F
    0.18 | 0.13

A portion of the library, so the mix of outcomes need not match the whole.
